Compound activity as filed in PubChem BioAssay.
A1 inh – inhibitors of the anti-apoptotic protein A1, read as caspase activation; AID 2462; actives 0.066% (n = 330,000); caspase activation, % (test concentration not listed); MEF A1-2A-BIM cells, Caspase-Glo 3/7 luminescence, 3 h; percent of clofoctol response, vehicle zero;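 active = over half of replicate activation scores above 10%, or exactly half above 10 with the replicate mean above 10; inconclusive = replicate mean below 10 yet half the replicates above 10; inactive = over half of replicates below 10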;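 also: wells of about 30 µL received 50 nL stock; many hits fall short of the cut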
UCH37 DUB inh – human UCH37 deubiquitinating enzyme inhibition; Q9Y5K5; purified proteasome/UCH37, Ub-AMC cleavage fluorescence; inhibition, % (no concentration beside the values); actives 0.33% (n = 330,000);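 active = mean of two replicates above 20%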;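 also: 0% = compound-free wells with enzyme and 100% = wells lacking proteasome; stock transfer was 100 nL into about 20 µL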
Target sequence (Q9Y5K5 whole entry, looked up): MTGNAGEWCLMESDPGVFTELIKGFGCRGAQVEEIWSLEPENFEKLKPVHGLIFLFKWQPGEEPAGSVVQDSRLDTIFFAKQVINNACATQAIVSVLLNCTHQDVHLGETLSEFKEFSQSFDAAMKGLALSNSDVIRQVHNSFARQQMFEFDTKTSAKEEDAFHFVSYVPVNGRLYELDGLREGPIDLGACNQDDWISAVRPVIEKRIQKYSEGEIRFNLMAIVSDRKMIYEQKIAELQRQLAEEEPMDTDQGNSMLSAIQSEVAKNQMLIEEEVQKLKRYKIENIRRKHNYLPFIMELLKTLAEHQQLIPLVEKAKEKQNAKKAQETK
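Signal – fluorescence, ex 355 nm, em 460 nm · System – Proteasome-bound UCH37 · Input – 0.15 nM proteasome as dispensed · Timing – 30 min preincubation with enzyme, 25 min cleavage at room temperature · Read-out basis – percent inhibition of cleavage signal versus uninhibited and no-proteasome wells · Medium – Tris-HCl pH 7.4 with ATP-MgCl2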
FGF22 binding – binders of recombinant human FGF22 by thermal shift | Q9HCT0 | SYPRO orange fluorescence; percent of sucrose octasulfate shift, DMSO zero | calls only at 9.99 µM | actives 1.5% (n = 340,000);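 active = melting point raised past a set limit in the mean and every replicate; inconclusive = no clear call; three in four hits are not shown here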
Target sequence (Q9HCT0 whole entry, looked up): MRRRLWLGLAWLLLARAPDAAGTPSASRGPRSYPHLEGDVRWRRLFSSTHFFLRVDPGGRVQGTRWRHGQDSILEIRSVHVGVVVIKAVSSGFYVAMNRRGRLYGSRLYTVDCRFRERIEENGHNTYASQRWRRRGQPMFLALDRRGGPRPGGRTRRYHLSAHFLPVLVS
AF4-AF9 inh – inhibitors of human MLL-AF4/AF9 interaction. AID 651704. P42568. AlphaScreen, biotin-AF4 peptide binding to FLAG-AF9. actives 0.47% (n = 350,000). inhibition, % at 10 µM;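 active = every replicate reaching a set inhibition limit, whatever the replicate mean, cut at about 25% in these data; inconclusive = mean inhibition reaches that limit but some replicates miss it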;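 also: 0% = plate neutral control median and 100% = total signal loss; the record names both 10 and 1 µM as test concentration; the first replicate is given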
Target sequence (P42568 whole entry, looked up): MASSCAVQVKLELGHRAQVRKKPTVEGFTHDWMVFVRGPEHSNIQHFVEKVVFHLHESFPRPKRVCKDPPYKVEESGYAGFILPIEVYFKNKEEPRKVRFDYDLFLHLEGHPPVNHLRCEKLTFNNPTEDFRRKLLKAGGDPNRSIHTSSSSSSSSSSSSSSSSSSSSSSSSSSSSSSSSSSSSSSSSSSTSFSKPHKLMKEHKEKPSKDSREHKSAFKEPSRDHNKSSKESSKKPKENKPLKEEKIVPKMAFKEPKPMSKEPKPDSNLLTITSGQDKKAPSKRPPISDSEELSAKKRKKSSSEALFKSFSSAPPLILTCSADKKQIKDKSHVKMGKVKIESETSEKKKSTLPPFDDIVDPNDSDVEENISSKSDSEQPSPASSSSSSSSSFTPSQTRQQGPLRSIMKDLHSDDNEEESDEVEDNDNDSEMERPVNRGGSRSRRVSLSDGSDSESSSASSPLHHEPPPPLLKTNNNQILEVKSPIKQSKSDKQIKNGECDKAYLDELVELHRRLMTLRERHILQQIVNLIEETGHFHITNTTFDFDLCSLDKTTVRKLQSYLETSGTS
T cruzi inh – blocks replication of Trypanosoma cruzi; T. cruzi beta-gal in NIH3T3, luminescence, 90 h; inhibition, % (concentration not given with the values); actives 1.4% (n = 300,000);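 active = mean inhibition across valid replicates above about 55%, limit read from the data; inconclusive = mean below that limit but half or more replicates reach it; inactive = mean below it, under half of replicates reach it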;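 also: signal also drops with host cell toxicity which is not excluded here; 0% = plate median of DMSO wells and 100% = zero luminescence signal; higher percent means less beta-gal luminescence so fewer parasites; stock transfer was 50 nL into about 50 µL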
Ecoli rRNA inh – inhibitors of bacterial rRNA selective over humanized ribosomes; GFP signal change (wild-type ribosome), % (concentration not given with the values); actives 1.6% (n = 350,000); E. coli WT GFP vs humanized-ribosome RFP mutants, fluorescence, 24 h; hits give low values; DMSO median 0, no signal -100;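 active = significant combined selectivity score with lowered wild-type GFP, culture density cut under 30%, mutant RFP and density less affected; inactive = any of these conditions unmet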; also: one replicate is shown; some compounds called inactive have numbers as strong as hits
E coli growth – blocks Escherichia coli growth | AID 1053175 | actives 0.21% (n = 330,000) | OD600 absorbance (test concentration not listed) | OD600, 23 h; hits give low values;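 active = OD600 absorbance below the run mean of sample wells minus 3.6 SD, in any replicate, cut at about 0.56 in these data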;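 also: stock transfer was 300 nL into about 60 µL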
Beta apoptosis – beta cell apoptosis inhibition; INS-1E cytokine-induced death, ATP luminescence, 48 h; percent of positive-control rescue, neutral wells zero; protection from apoptosis, % (test concentration not listed); actives 0.8% (n = 300,000); AID 435005;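 active = all replicates at 75% or more, or half of them and the mean; inconclusive = half reach 75% but not the mean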;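 also: 0% = cytokine-treated negative control wells and 100% = positive control rescue; higher means more ATP so stronger rescue from cytokine killing; wells of about 40 µL received 100 nL stock; the first replicate is given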
Ecoli rRNA inh OD600 – also measured in Ecoli rRNA inh; calls as there; OD600 change, %; measured here: OD600 growth;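 optical density of the mix in the first replicate; 0 = DMSO median and -100 = no signal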
Ecoli rRNA inh RFP – further read-out of Ecoli rRNA inh, marked with its call; RFP signal change, %; measured here: RFP humanized mutant strains;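 first replicate; 0 = DMSO median and -100 = no signal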
* = called active by the depositor.

COc1ccc(NC(=O)COC(=O)c2ccc(NS(=O)(=O)/C=C/c3ccccc3)cc2)cc1 was read as A1 inh -1.8, UCH37 DUB inh 7.2, T cruzi inh 2, E coli growth 0.72 and Beta apoptosis -8.
Screening CCOc1cccc(C(=O)N/N=C/c2coc3ccccc3c2=O)c1 returned A1 inh -0.3, FGF22 binding inactive, AF4-AF9 inh -0.5, T cruzi inh -4 and Beta apoptosis 0.
For COc1ccc(C(CC(=O)c2ccccc2)C2CCCCC2=O)cc1 (centres undefined) the results were A1 inh 1.2, UCH37 DUB inh 4.1, T cruzi inh 14, E coli growth 0.65 and Beta apoptosis -1.
For CCCC#CCN1CCN(C23CC4CC(CC(C4)C2)C3)CC1 the results were A1 inh -0.4, UCH37 DUB inh 2.3, FGF22 binding inactive, AF4-AF9 inh 2.0, T cruzi inh 32, Ecoli rRNA inh 8, E coli growth 0.68, Ecoli rRNA inh OD600 -10 and Ecoli rRNA inh RFP -6.8.
For CC(C)c1ccc(NC2CCCN(C(=O)c3cccs3)C2)cc1 (centres undefined) the results were A1 inh 0.0, UCH37 DUB inh 4.0, FGF22 binding inactive, AF4-AF9 inh inconclusive, T cruzi inh 15, Ecoli rRNA inh -22, E coli growth 0.69, Beta apoptosis 0, Ecoli rRNA inh OD600 -37 and Ecoli rRNA inh RFP -7.9.
`CCOC(=O)c1cc2sccc2n1CC(=O)Nc1ccc2c(c1)OCCO2` gave A1 inh 0.3, UCH37 DUB inh 4.1, T cruzi inh inconclusive, Ecoli rRNA inh 5, E coli growth 0.72, Beta apoptosis 6, Ecoli rRNA inh OD600 -3 and Ecoli rRNA inh RFP -4.3.
`Cc1c(Cl)cccc1NC(=O)NC1CCCCC1` gave A1 inh 0.6, UCH37 DUB inh 5.2, T cruzi inh -2, E coli growth 0.67 and Beta apoptosis 4.
C=CCCC(=O)NC1CC(C)(C)Cc2c1cnn2-c1cccc(F)c1 (centres undefined) was read as A1 inh 0.8, UCH37 DUB inh 2.4, FGF22 binding inactive, AF4-AF9 inh 6.4, T cruzi inh -19, Ecoli rRNA inh -2, E coli growth 0.67, Ecoli rRNA inh OD600 -9 and Ecoli rRNA inh RFP -3.4.
Screening CC(=O)NCc1nnc2c3ccccc3c(-c3ccccc3)nn12 returned A1 inh 1.1, UCH37 DUB inh 0.0, T cruzi inh -13, E coli growth 0.7 and Beta apoptosis 2.
`CCOC(=O)C1(CCOc2ccccc2)CCN(Cc2cnc(SC)nc2)CC1` gave A1 inh 0.3, UCH37 DUB inh 2.0, FGF22 binding inactive, AF4-AF9 inh 5.3, T cruzi inh 11, Ecoli rRNA inh -26, E coli growth 0.64, Ecoli rRNA inh OD600 -51 and Ecoli rRNA inh RFP 5.7.
For CN1CCN(S(=O)(=O)c2csc(C(N)=O)c2)CC1 the results were A1 inh 0.3, UCH37 DUB inh 1.2, FGF22 binding inactive, AF4-AF9 inh -7.6, T cruzi inh -3, Ecoli rRNA inh 12, E coli growth 0.75, Beta apoptosis -7, Ecoli rRNA inh OD600 20 and Ecoli rRNA inh RFP -1.7.
Screening O=C(CCc1nnc2ccc(NCc3ccccc3Cl)nn12)NCC1CCN(C2CCCC2)C1 (centres undefined) returned A1 inh -0.3, UCH37 DUB inh -1.5, FGF22 binding inactive, AF4-AF9 inh 11, T cruzi inh 8, Ecoli rRNA inh 0, E coli growth 0.67, Beta apoptosis -1, Ecoli rRNA inh OD600 -19 and Ecoli rRNA inh RFP 4.7.
For O=C(O)c1ccc2c(=O)n(-c3ccccc3F)c(=S)[nH]c2c1 the results were A1 inh -0.3, UCH37 DUB inh -0.2, FGF22 binding inactive, AF4-AF9 inh 3.7, T cruzi inh -12, Ecoli rRNA inh 13, E coli growth 0.7, Beta apoptosis -5, Ecoli rRNA inh OD600 12 and Ecoli rRNA inh RFP 1.5.
For Cc1ccc(Nc2nc(N)nc(CSc3nnc(C)s3)n2)cc1 the results were A1 inh -1.3, UCH37 DUB inh 4.7, FGF22 binding inactive, T cruzi inh -6, Ecoli rRNA inh -1, E coli growth 0.68, Beta apoptosis 0, Ecoli rRNA inh OD600 -1 and Ecoli rRNA inh RFP -0.1.
`Cc1ccc(C(C)C)c(OCCCN(C)Cc2ccccc2)c1` gave A1 inh 0.1, UCH37 DUB inh 4.3, T cruzi inh 41, E coli growth 0.67 and Beta apoptosis 13.
For CCN(CC(=O)N(CC(C)C)c1c(N)n(CC(C)C)c(=O)[nH]c1=O)Cc1nc2ccccc2c(=O)[nH]1 the results were A1 inh 0.2, UCH37 DUB inh 2.1, FGF22 binding inactive, AF4-AF9 inh -1.3, T cruzi inh -18, Ecoli rRNA inh 7, E coli growth 0.67, Beta apoptosis -3, Ecoli rRNA inh OD600 3 and Ecoli rRNA inh RFP -0.8.
`CC(C)Oc1nnnn1-c1ccccc1` gave A1 inh -0.2, UCH37 DUB inh 2.1, T cruzi inh -17, E coli growth 0.65 and Beta apoptosis -2.
`O=S(=O)(NCc1ccncc1)c1ccc(Br)s1` gave A1 inh 0.1, UCH37 DUB inh 1.2, T cruzi inh 18, E coli growth 0.73 and Beta apoptosis 116*.
For CCOC(=O)Cc1nnc(NC(=O)CSc2nc3ccccc3[nH]2)s1 the results were A1 inh -0.7, UCH37 DUB inh -0.6, FGF22 binding inactive, AF4-AF9 inh -0.6, T cruzi inh -22, Ecoli rRNA inh -17*, E coli growth 0.65, Beta apoptosis -5, Ecoli rRNA inh OD600 2.0* and Ecoli rRNA inh RFP 5.3*.
For Cc1ccc(-c2noc(CCC(=O)NC3CCCc4ccccc43)n2)cc1 (centres undefined) the results were A1 inh -0.3, UCH37 DUB inh 2.1, T cruzi inh 15, E coli growth 0.75 and Beta apoptosis -2.

Brought forward from above: two entries, followed by the next part.
For CCOC(=O)Cc1nnc(NC(=O)CSc2nc3ccccc3[nH]2)s1 the results were A1 inh -0.7, UCH37 DUB inh -0.6, FGF22 binding inactive, AF4-AF9 inh -0.6, T cruzi inh -22, Ecoli rRNA inh -17*, E coli growth 0.65, Beta apoptosis -5, Ecoli rRNA inh OD600 2.0* and Ecoli rRNA inh RFP 5.3*.
For Cc1ccc(-c2noc(CCC(=O)NC3CCCc4ccccc43)n2)cc1 (centres undefined) the results were A1 inh -0.3, UCH37 DUB inh 2.1, T cruzi inh 15, E coli growth 0.75 and Beta apoptosis -2.
Screening Cc1ccc(C(=O)NCc2ccco2)c(C)c1 returned A1 inh 0.6, UCH37 DUB inh -2.0, FGF22 binding inactive, AF4-AF9 inh 3.5, T cruzi inh 5, Ecoli rRNA inh 7, E coli growth 0.64, Beta apoptosis -4, Ecoli rRNA inh OD600 8 and Ecoli rRNA inh RFP 13.
Screening COc1cccc(NC(=O)C(=O)NCCC2CCCCN2S(=O)(=O)c2cccs2)c1 (centres undefined) returned A1 inh -0.1, UCH37 DUB inh 0.3, FGF22 binding inactive, AF4-AF9 inh 6.8, T cruzi inh 13, Ecoli rRNA inh 0, E coli growth 0.67, Beta apoptosis -3, Ecoli rRNA inh OD600 0 and Ecoli rRNA inh RFP 1.3.
For COc1ccccc1CNC(=O)CCN1C(=O)COc2ccc(C)cc21 the results were A1 inh 0.5, UCH37 DUB inh 6.3, T cruzi inh 8, E coli growth 0.73 and Beta apoptosis 1.
`Cc1nc(Nc2nc3c(c(=O)[nH]2)CCC3)nc2ccccc12` gave A1 inh -0.1, UCH37 DUB inh 4.0, T cruzi inh -14, E coli growth 0.69 and Beta apoptosis -11.
CC1CCCCN1Cc1nc2c(c(=O)n(C)c(=O)n2C)n1CCc1ccccc1 (centres undefined) was read as A1 inh -0.5, UCH37 DUB inh 5.0, T cruzi inh 13, E coli growth 0.8 and Beta apoptosis -2.
For Nc1ccc(S(=O)(=O)Nc2ccc(Cl)nn2)cc1 the results were A1 inh -0.4, UCH37 DUB inh 0.9, FGF22 binding inactive, T cruzi inh 11, Ecoli rRNA inh -8, E coli growth 0.59, Beta apoptosis -6, Ecoli rRNA inh OD600 5 and Ecoli rRNA inh RFP -9.2.
For CC(=O)Nc1ccc(OCC(O)CN2CCN(c3ccc(Cl)cc3)CC2)cc1 (centres undefined) the results were A1 inh -1.6, UCH37 DUB inh 4.5, T cruzi inh -3, E coli growth 0.69 and Beta apoptosis 5.
For Cc1ccc(-n2c(SCC(N)=O)nc(O)cc2=O)cc1 the results were A1 inh 0.8, UCH37 DUB inh 2.5, FGF22 binding inactive, AF4-AF9 inh 0.2, T cruzi inh -14, Ecoli rRNA inh 18, E coli growth 0.62, Beta apoptosis 1, Ecoli rRNA inh OD600 5 and Ecoli rRNA inh RFP 0.6.
`COc1ccc(C(=O)NCC(=O)N2CCN(c3ccc(Cl)cc3)CC2)cc1` gave A1 inh 0.5, UCH37 DUB inh 5.7, FGF22 binding inactive, AF4-AF9 inh -3.3, T cruzi inh 11, Ecoli rRNA inh 3, E coli growth 0.71, Ecoli rRNA inh OD600 6 and Ecoli rRNA inh RFP -0.9.
For Cc1noc(C(=O)N2CCN(Cc3ccc4c(c3)OCO4)CC2)c1Cl the results were A1 inh 0.6, UCH37 DUB inh 8.2, FGF22 binding inactive, AF4-AF9 inh 3.2, T cruzi inh -12, Ecoli rRNA inh 3, E coli growth 0.72, Beta apoptosis 0, Ecoli rRNA inh OD600 2 and Ecoli rRNA inh RFP 2.0.
Screening Cc1cccc(C)c1OCc1nnc(NC(=O)CSc2ccc(Cl)cc2)s1 returned A1 inh 2.2, UCH37 DUB inh 7.0, FGF22 binding inactive, AF4-AF9 inh -1.2, T cruzi inh 0, Ecoli rRNA inh -1, E coli growth 0.72, Beta apoptosis -7, Ecoli rRNA inh OD600 -4 and Ecoli rRNA inh RFP 8.3.
For c1coc(-c2ccnc(-c3ccncc3)n2)c1 the results were A1 inh 0.8, UCH37 DUB inh 5.2, FGF22 binding inactive, AF4-AF9 inh -12, T cruzi inh -11, Ecoli rRNA inh 4, E coli growth 0.69, Beta apoptosis -3, Ecoli rRNA inh OD600 -7 and Ecoli rRNA inh RFP 0.1.
For COc1ccc(OC)c(CN2CCN(C(=O)CNC(=O)c3cc(C)cc(C)c3)CC2)c1 the results were A1 inh -0.2, UCH37 DUB inh 1.0, FGF22 binding inactive, AF4-AF9 inh 3.1, Ecoli rRNA inh 5, E coli growth 0.68, Beta apoptosis 2, Ecoli rRNA inh OD600 -7 and Ecoli rRNA inh RFP 0.6.
For COc1cc(OC)c(C(=O)NNC(=O)CN(C)S(=O)(=O)c2ccc(Cl)cc2)cc1OC the results were A1 inh 0.9, UCH37 DUB inh 1.3, FGF22 binding inactive, AF4-AF9 inh -4.5, T cruzi inh 0, Ecoli rRNA inh 1, E coli growth 0.68, Beta apoptosis -3, Ecoli rRNA inh OD600 2 and Ecoli rRNA inh RFP -2.9.
`Cc1nc(C)c(C(=O)OC(C)C(=O)Nc2ccc(F)cc2)s1` (centres undefined) gave UCH37 DUB inh 1.6, FGF22 binding inactive, AF4-AF9 inh -1.4, Ecoli rRNA inh 4, E coli growth 0.71, Ecoli rRNA inh OD600 4 and Ecoli rRNA inh RFP -0.1.

Only part of the results is shown, so the mix of outcomes need not match the whole.
